Screening data deposited in PubChem BioAssay by National Center for Advancing Translational Sciences (NCATS).
TRPML1 ag: activates the human TRPML1 channel; 0.12% of 410,000 active; activation, % (no concentration beside the values); AID 624414; TRPML1-expressing cells, Ca2+ dye fluorescence, FDSS; host cell line not named in the record; reference of the full effect not given here; in the data active = activation above about 50%; inconclusive = about 30% to 50%; inactive = below about 30%; also: 0% is about no effect; the text of the record puts the active cut at 80%
Target sequence (Q9GZU1 whole entry, looked up): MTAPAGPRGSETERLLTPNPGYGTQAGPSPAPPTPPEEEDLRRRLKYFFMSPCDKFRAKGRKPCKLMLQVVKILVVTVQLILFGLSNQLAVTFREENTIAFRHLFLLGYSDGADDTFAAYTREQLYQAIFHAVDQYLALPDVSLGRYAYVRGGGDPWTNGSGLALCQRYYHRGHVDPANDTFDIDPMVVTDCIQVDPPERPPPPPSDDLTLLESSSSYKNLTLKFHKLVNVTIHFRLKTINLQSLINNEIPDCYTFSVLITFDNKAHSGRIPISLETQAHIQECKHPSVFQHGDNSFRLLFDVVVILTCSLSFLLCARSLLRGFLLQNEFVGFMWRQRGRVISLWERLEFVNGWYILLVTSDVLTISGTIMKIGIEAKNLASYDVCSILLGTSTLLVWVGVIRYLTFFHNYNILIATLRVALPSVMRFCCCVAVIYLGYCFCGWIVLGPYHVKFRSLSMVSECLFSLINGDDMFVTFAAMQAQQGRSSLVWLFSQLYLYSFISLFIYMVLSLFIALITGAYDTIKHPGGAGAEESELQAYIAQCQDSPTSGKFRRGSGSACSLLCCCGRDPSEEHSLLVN
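Calcium fluorescence on an FDSS kinetic reader gave the read-out. Tet-induced TRPML1-DL cells were plated overnight, dye-loaded (Ca8 with quencher, 45-90 min, room temperature, dark), then read 110 s after compound addition, and again 110 s after 4uM final 54-4 (EC80).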
D2 potentiator: positive allosteric modulators of human D2 dopamine receptor. P14416. DiscoveRx D2 beta-arrestin cells, luminescence, 90 min; 100% = 57 uM dopamine signal. potentiation, % (concentration not given with the values). 0.23% of 360,000 active. AID 624464; active = potentiation of 50% or more; inconclusive = 30% to 50%; inactive = 30% or less;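 also: compound concentration not given in the record; tested on top of an EC20 dose of dopamine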
Target sequence (P14416 whole entry, looked up): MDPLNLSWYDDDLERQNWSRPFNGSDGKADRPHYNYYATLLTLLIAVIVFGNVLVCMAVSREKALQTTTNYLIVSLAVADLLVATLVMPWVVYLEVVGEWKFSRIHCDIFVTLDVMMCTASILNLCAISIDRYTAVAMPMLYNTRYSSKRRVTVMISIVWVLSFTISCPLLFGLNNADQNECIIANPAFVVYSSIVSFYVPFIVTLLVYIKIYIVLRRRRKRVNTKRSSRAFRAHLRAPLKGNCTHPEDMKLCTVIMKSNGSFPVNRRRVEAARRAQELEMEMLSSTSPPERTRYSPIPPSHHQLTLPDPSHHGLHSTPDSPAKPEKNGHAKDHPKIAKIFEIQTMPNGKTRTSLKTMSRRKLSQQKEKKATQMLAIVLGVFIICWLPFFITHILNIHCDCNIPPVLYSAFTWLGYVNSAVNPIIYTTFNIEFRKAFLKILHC
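D2 cells co-treated with compound plus 50 nM dopamine (EC20) for 90 min at 37 deg C to detect potentiation. Beta-arrestin recruitment was read as enzyme-fragment luminescence after 1 h at ambient temperature. Full response was set by 57 uM dopamine.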
TRPML1 blocker: human mucolipin-1 channel inhibition. AID 624415. TRPML1-inducible cells, Ca2+ dye fluorescence, FDSS; stronger effect = lower value; inhibition of EC80 agonist-evoked calcium signal. Q9GZU1. 0.02% of 390,000 active. activity change, negative = inhibition, % (no concentration beside the values); in the data active means activity change below about -50%; inconclusive means about -30% to -50%; inactive means above about -30%;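 also: stimulus is agonist 54-4 at its EC80 concentration; % is scaled to controls: 0 for no effect and ±100 for the full control effect; compound concentration not given in the record; the text of the record puts the active cut at -80%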
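TRPML1-DL cells, Tet-induced overnight (~16 h, 37 °C) at 1,500 cells/well, were loaded with Ca8 no-wash dye plus quencher for 45-90 min at room temperature. Compounds were pinned during FDSS kinetic reading; agonist 54-4 at EC80 (4 uM final) then added.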
CtBP-E1A inh: blocks the CtBP interaction with E1A; AlphaScreen GST-E1A/His-CtBP binding, 1536-well; stronger effect = lower value; control for the full effect not named in the record; activity change, % (no concentration beside the values); 0.49% of 340,000 active; AID 651724; in the data active means activity change below about -65%; inconclusive means about -30% to -65%; inactive means above about -30%; also: % is scaled to controls: 0 for no effect and ±100 for the full control effect; compound concentration not given in the record
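AlphaScreen with 125 nM GST-E1A and 125 nM His-CtBP (5X stocks) in Tris pH 8.0, 300 mM NaCl, BSA, Tween 20, TCEP. Compounds preincubated 2 h at 37 deg C, then glutathione donor/nickel acceptor beads added for 1 h at 37 deg C in dark.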
Six1-Eya2 blk: Six1/Eya2 interaction inhibition | Q15475+O00167 | AlphaScreen GST-Six1/His-Eya2 binding, biochemical; stronger effect = lower value; control for the full effect not named in the record | activity change, % (no concentration beside the values) | 0.56% of 360,000 active | AID 651725; in the data active = activity change below about -65%; inconclusive = about -30% to -65%; inactive = above about -30%; also: % is scaled to controls: 0 for no effect and ±100 for the full control effect; compound concentration not given in the record
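Compounds are tested against tagged Six1 and Eya2 proteins bridged by glutathione donor and nickel acceptor beads; after a one-hour incubation at 37 °C without light, AlphaScreen emission is recorded.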
TRPV1 PAM: human TRPV1 potentiation | 0.02% of 320,000 active | Q8NER1 | TRPV1-expressing cells, Fluo-8 calcium influx, capsaicin EC20 potentiation; host cell line not named in the record; control for the full effect not named in the record | potentiation, % at 8.33 µM; active means potentiation above 80%; inconclusive means 30% to 80%; inactive means below 30%; also: 0% is about no effect
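Cells expressing TRPV1 were dye-loaded with Fluo-8 and read kinetically: 10 s baseline, 3 min after compound (agonist portion), then 2 min after EC20 capsaicin (allosteric enhancer portion). Calcium-bound dye fluorescence at 480/520 nm.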
An asterisk follows results filed as active; ? = inconclusive; · = not tested or not shown; & = joins results of further samples.

SMILES	TRPML1 ag	D2 potentiator	TRPML1 blocker	CtBP-E1A inh	Six1-Eya2 blk	TRPV1 PAM
COc1ccc(Cl)cc1-c1cc(C(=O)Nc2cc(OC)c(OC)c(OC)c2)[nH]n1	-0.5	-8	·	4	-7	·
Cc1cc(NC(=O)CSc2nc3c(cc2C#N)CCCCC3)no1	0.7	5	-4	20	-4	16
O=C(Nc1sc2c(c1C(=O)NCC1CCCO1)CCCC2)c1cccs1 (configuration not stated)	0.1	-12	-16	50	16	-2
COC(=O)c1cc2sc(Cl)cc2n1CC(=O)NCC1CCCO1 (configuration not stated)	4.7	5	-3	5	-1	2
CCOC(=O)C1=C(C)C(c2ccc(OC)cc2)NC(=O)N1 (configuration not stated)	0.8	-6	-3	12	3	17
Cc1ccc(CNc2oc(-c3ccco3)nc2C#N)cc1	0.6	-8	-1	-15	-9	-11
Cc1coc2c(C)c3oc(=O)c(CCC(=O)N[C@@H](C)C(=O)N[C@@H](Cc4ccccc4)C(=O)O)c(C)c3cc12	·	-20	·	-80*	-69*	4
Cc1c(C(=O)NC(=S)Nc2ccc3c4c(cccc24)CC3)cccc1[N+](=O)[O-]	0.9	5	-5	-9	-5	4
O=C(CN1CCOCC1)N1CCN(S(=O)(=O)c2ccccc2)C1c1ccccc1 (configuration not stated)	0.6	-8	17	-6	4	2
COc1ccc(-c2csc3ncnc(N4CCN(c5ccccc5[N+](=O)[O-])CC4)c23)cc1	0.7	-4	47	-1	?	-25
CCn1c(SCC(=O)OC(C)C)nnc1-c1ccccc1	0.1	1	-15	7	6	·
COc1cc2c(cc1OC)C(C(=O)NCc1cccnc1)C(c1cccnc1)N(C)C2=O (configuration not stated)	-0.5	9	-11	4	5	11
O=C(Nc1ccccc1)N1CCN(C2c3ccccc3-c3ccccc32)CC1	2.5	-2	-6	11	2	6
O=C(CCn1cnc2ccccc21)N/N=C/C=C/c1ccccc1	2.7	0	25	-3	4	3
Cc1ccc(-c2csc(NC(=O)/C=C/c3ccco3)c2C(=O)O)cc1	0.6	-9	-17	6	-13	-6
CSCC[C@H](NC(=O)[C@H](Cc1ccccc1)n1c(=O)[nH]c2ccccc2c1=O)C(=O)N1CCC[C@H]1C(=O)O	·	-7	·	5	1	-18
CCC1Nc2ncnc(N3CCCCC3)c2N(Cc2ccc(OC)cc2)C1=O (configuration not stated)	-0.3&0.2	-20&-11	-8&-12	2&-1	-2&-2	·
COc1ccc(NC(=O)C(C)N2C(=O)c3ccccc3C2=O)cc1S(=O)(=O)N1CCOCC1 (configuration not stated)	0.1	-6	7	3	8	-9
Clc1cccc(Cc2c(-c3cccc(Cl)c3)nc3c4ccccc4ccn23)c1	0.3	·	·	8	4	·
Cc1cccc(CSCC(=O)N2CCN(S(=O)(=O)c3ccccc3C#N)CC2)c1	-0.7	-10	0	2	3	·
COc1ccc(/C=C/C(=O)OCC(=O)Nc2ccc(OC)c(S(=O)(=O)N3CCCCC3)c2)cc1	0.2	-4	27	-10	-13	5
O=C(N/N=C/c1c(O)ccc2ccccc12)C(=O)N1CCCC1	1.0	-7	10	?	-87*	·
COc1cccc(C(=O)NC(c2ccccc2)C2CCCC2)c1 (configuration not stated)	2.3	-11	3	4	0	-6
O=C(Cn1cnc2c(OCc3ccccc3)ncnc21)NCCN1CCOCC1	-0.9	5	-16	3	8	·
COc1ccccc1CNC(=O)C1CCC(CNS(=O)(=O)c2ccc(C)cc2)CC1 (configuration not stated)	2.5	5	-7	5	-2	-2
O=C(O)c1cccc(-c2ccc(/C=N/n3cnnc3)o2)c1	-0.8	-3	3	·	-10	5
COc1cc(C(C)=O)ccc1OC(=O)c1cc2cccc(OC)c2oc1=O	0.1	-4	20	4	-1	8
O=C(COC(=O)CCC(=O)c1ccc(F)cc1)Nc1cccc(S(=O)(=O)N2CCCC2)c1	1.0	-13	17	·	2	1
C=CCN(CC=C)C(=O)C1CCN(S(=O)(=O)c2ccc(-n3cnnn3)cc2)CC1	-0.8	-5	-4	0	-26	-4
CN=C1SC(CC(=O)NCCc2ccc(OC)c(OC)c2)C(=O)N1C (configuration not stated)	-0.4&-0.1	-5&15	6&-10	4&-1	-8&1	1
CCOc1ccccc1C1C(C(N)=O)=C(C)Nc2nc(CCCO)nn21 (configuration not stated)	0.8	-4	2	0	6	·
C1CCN2CC3CC(CN4CCCC[C@@H]34)[C@H]2C1	-0.2	-4	5	26	24	·
O=C1NC(=S)N/C1=C\c1cccnc1	0.4	3	-13	·	2	11
NS(=O)(=O)c1ccc(CCNC(=O)c2cccc(S(=O)(=O)N3CCCC3)c2)cc1	1.3	-1	24	2	2	4
Cc1c(C(C)NC(=O)c2cc(COc3cccc4cnccc34)on2)cnn1C (configuration not stated)	-0.7	-11	-1	·	-5	5
CCN1C(=O)C2C(c3ccccc3F)NC(Cc3ccc(O)cc3)(C(=O)OC)C2C1=O (configuration not stated)	3.1	4	-17	6	6	1
CCC(=O)Nc1ccc2ccccc2c1	-0.6	10	-7	10	-1	5
Nn1cnnc1SCC(=O)Nc1ccc2c(c1)OCO2	-0.8	3	26	7	4	0
CCCCC(=O)N/C(N)=N/c1nc2ccccc2o1	0.1	-1	12	12	11	·
CCOc1ccc(C(=O)CCC(=O)N2CCN(c3ccc(O)cc3)CC2)cc1	0.1	4	-23	-2	-14	·
Cc1ccc(NC(=O)COC(=O)c2ccc3c(c2)OCO3)c(C)c1	0.7	-6	1	-23	3	1
C/C(=N\N=c1/sc2ccccc2n1C)c1ccc(N2CCOCC2)cc1	-0.2	-3	47	-1	-13	-12
Cn1c(=O)cc(SCC(=O)NCC2CCCO2)c2ccccc21 (configuration not stated)	-0.6	5	9	-1	4	-5
O=C(NCc1cccs1)c1cc(S(=O)(=O)N2CCOCC2)ccc1N1CCCC1	2.2	-8	1	0	8	12
O=C(NCc1ccc2c(c1)OCO2)C1CC(=O)N(CCc2ccccc2)C1 (configuration not stated)	-0.7	0	10	4	-5	·
COc1ccc(C2CC(c3cccs3)=NN2C(=O)CSc2nc(=O)n3ccccc3n2)cc1 (configuration not stated)	0.0	-29	0	0	-6	10
CCOc1ccc(NC(=O)CCN2CCN(c3ccccc3)CC2)cc1	-0.3	-8	1	-2	-1	3
COCCCNC(=O)c1c(-c2ccccc2)noc1C	-0.2	-6	6	8	8	1
CCN1CCN(C(=O)C(=O)c2c(C)[nH]c3ccccc23)CC1	-0.5	-12	-12	3	-3	-4
COCCCN(C(=O)CSc1nc2ccccc2c(=O)n1C)c1c(N)n(Cc2ccccc2)c(=O)[nH]c1=O	-0.1	-13	-12	4	-3	·
O=C(CNC(=O)c1cccc(OC(F)F)c1)Nc1ccc(Cl)cc1	1.7	-22	14	5	7	14
Cc1ccc(-c2ccc(/C=N/n3cnnc3)o2)cc1	1.8	0	16	0	-7	·
CCCCn1c(N)c(N(CCOC)C(=O)COC(=O)COc2c(C)cc(C)cc2C)c(=O)[nH]c1=O	-0.8	-11	-7	7	2	20
CCOC(=O)c1c2c(c(=S)n(-c3ccccc3)c1N)CCC2	2.5	-11	-8	-23	-25	-12
O=C(NC1CCCCC1)c1ccc(N2CCCC2=O)cc1	-0.6	1	-3	0	12	-1
CCn1c2ccccc2c2cc(NC(=O)N3CCOCC3)ccc21	0.7	-8	-2	-7	-9	0
CS/C(=C\[N+](=O)[O-])Nc1ccccc1	-0.4	-13	2	-1	-1	14
COCCOc1cc(N2C(=O)CSCC2=O)c(Cl)cc1Cl	0.9	-8	12	2	8	?
Cc1ccc([C@@H]2[C@@H]3C(=O)N(c4ccccc4)C(=O)[C@@H]3[C@]3(Cc4ccccc4)C(=O)N(CC4CC4)CC(=O)N23)o1	0.0	-6	13	4	9	14
O=C(Nc1ccc(-c2noc(COc3ccccc3Cl)n2)cc1)c1ccco1	0.5	12	-1	-6	5	-24
Next section:
SMILES	TRPML1 ag	D2 potentiator	TRPML1 blocker	CtBP-E1A inh	Six1-Eya2 blk	TRPV1 PAM
COc1ccc(CNC(=O)C(c2ccco2)N(C(=O)c2ccccn2)c2ccccc2)cc1 (configuration not stated)	1.0	-25	-2	·	0	-10
CN(CC(=O)Nc1ccc(Cl)c(C(F)(F)F)c1)Cc1cc(=O)n2ccsc2n1	-1.0	4	-4	-10	-1	4
Cc1c(C(=O)NCC(C)(C)N2CCOCC2)oc2ccccc12	-0.7	-5	-11	·	5	0
COc1ccc(-c2cc(C(=O)NC(Cc3cc4ccccc4[nH]3)C(=O)O)c(C)o2)cc1OC (configuration not stated)	0.1	-6	7	-7	-17	8
Cc1cc(C)n2cc(CSc3nnc(-c4ccccc4)c(-c4ccccc4)n3)nc2n1	-0.5	-2	18	5	-5	·
Cc1ccc(/C=N/NC(=O)CNC(=O)Cc2ccccc2)o1	1.0	-20	19	3	2	3
O=c1c2cn(Cc3ccc(F)cc3)c3ccccc3c-2nn1Cc1ccc(F)cc1	-0.4	-1	10	9	-1	21
CC(C)Cn1c(SC(C)C(=O)Nc2ccc3c(c2)OCCO3)nc2ccccc2c1=O (configuration not stated)	1.1	-6	-2	-3	-10	3
Oc1[nH]c2ccccc2c1N=Nc1c(F)c(F)c(C(F)(F)F)c(F)c1F	-0.3	6	4	9	6	-6
Cn1cnc(C(F)(F)F)c1-c1ccc([N+](=O)[O-])cc1	-0.8	-6	2	-15	-10	-1
CC(=O)OCP(C)(=O)COC(C)=O	-0.1	-3	-5	-1	9	5
CCOC(=O)c1cc2ccc3ccccc3c2oc1=O	1.0	0	-4	-22	-22	-10

6 of the compounds above, with values under each structure:
Every second line gives: TRPML1 ag, D2 potentiator, TRPML1 blocker, CtBP-E1A inh, Six1-Eya2 blk, TRPV1 PAM
Cc1cc(C)n2cc(CSc3nnc(-c4ccccc4)c(-c4ccccc4)n3)nc2n1
    -0.5, -2, 18, 5, -5, ·
CC(C)Cn1c(SC(C)C(=O)Nc2ccc3c(c2)OCCO3)nc2ccccc2c1=O (configuration not stated)
    1.1, -6, -2, -3, -10, 3
Cn1cnc(C(F)(F)F)c1-c1ccc([N+](=O)[O-])cc1
    -0.8, -6, 2, -15, -10, -1
CN(CC(=O)Nc1ccc(Cl)c(C(F)(F)F)c1)Cc1cc(=O)n2ccsc2n1
    -1.0, 4, -4, -10, -1, 4
Cc1ccc(/C=N/NC(=O)CNC(=O)Cc2ccccc2)o1
    1.0, -20, 19, 3, 2, 3
CCOC(=O)c1cc2ccc3ccccc3c2oc1=O
    1.0, 0, -4, -22, -22, -10

Other results follow:
SMILES	TRPML1 ag	D2 potentiator	TRPML1 blocker	CtBP-E1A inh	Six1-Eya2 blk	TRPV1 PAM
Cc1ccc2cc(CCNC(=O)c3cccc([N+](=O)[O-])c3)c(=O)[nH]c2c1	1.2	-8	5	·	-5	3
CCCc1cc(=O)n(-c2nc3ccccc3s2)[nH]1	0.2	11	0	2	-1	-1
O=S(=O)(NCc1ccccn1)c1ccc(Cl)s1	1.1	-8	3	-6	0	2
CN(Cc1cnn(C)c1)Cc1nc(Cc2ccccc2Cl)no1	-0.4	-1	-4	6	18	8
COc1ccc(S(=O)(=O)N2CCc3cc4c(cc3C2C)OCCCO4)cc1 (configuration not stated)	0.8	-9	-51*	-4	0	0
